# Biofilm kill mix: clotrimazole potentiators killing C. albicans biofilm, primary screen, 4-compound mixtures | C. albicans biofilm persisters + clotrimazole, fluorescence viability; primary screen in compound mixtures of four per well | 120,000 compounds, 0.02% hits | inhibition, % at 7.6 µM | AID 1242, 2008;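 active means inhibition above 30.3% in the primary screen of four-compound pools, then above 30% when the compound was retested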;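 further: compounds exposed to preformed 24 h biofilms for 48 h; the number belongs to the whole pool; some results filed as inactive read as strong as hits; inactives centre near 12; 0% = biofilm with clotrimazole alone and 100% = kill control; retested singly at about 60 µM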
#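 Assay system: C. albicans biofilms / Medium: RPMI/MOPS medium, pH 7.0 / Schedule: biofilm formation 24 h, compound exposure 48 h, 37 °C / Measured by: Alamar Blue fluorescence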
# * hit, by the source's call.
SMILES,Biofilm kill mix
O=C(NCc1ccco1)c1ccc(Cl)c(S(=O)(=O)N2CCc3ccccc32)c1,18.9
Cc1cc(C)nc(NC(=O)CSc2ncccn2)n1,15.4
COc1ccc(/C=N/Nc2ncnc3sc(C)c(C)c23)cc1,16.2
CC1=NN2C(=N)/C(=C\c3cc(C)n(-c4ccc(C)cc4)c3C)C(=O)N=C2S1,11.1
Cc1[nH]c2ccc(F)cc2c1CCN1C(=O)OC(C)(C)C1(C)O (stereo unspecified),18.5
CCc1ccc(S(=O)(=O)NCC(O)COc2ccc(OC)cc2)cc1 (stereo unspecified),24.9
COc1ccc(Br)cc1CNc1ccc(S(N)(=O)=O)cc1,6.6
O=C(Nc1nc2ccccc2[nH]1)c1ccc(S(=O)(=O)N2CCOCC2)cc1,11.0
CCCn1nc(C(=O)NC2CCCc3ccccc32)c2ccccc2c1=O (stereo unspecified),16.4
COc1ccc(CCN2C(=O)CC(Cc3cccc(C)c3)C2=O)cc1OC (stereo unspecified),30.0
COC(=O)c1c(NC(=O)CN2CCN(c3cccc(Cl)c3)CC2)sc(C)c1C,0.9
COc1ccccc1Nc1ncc(C(=O)N2CCN(Cc3ccc(OC)c(OC)c3OC)CC2)c2ccccc12,-6.4
COc1ccccc1OCC(=O)Nc1ccc(-c2nnc(-c3ccco3)o2)cc1,13.1
CC(C)C(=O)Nc1ccccc1Cc1ccccc1,10.4
CN1Cc2c(N)cccc2C(c2ccccc2)C1 (stereo unspecified),9.5
COC(=O)CC1C(=O)NCCN1C(=O)CSc1nc2ccccc2s1 (stereo unspecified),13.4
CC(OC(=O)c1cc(S(=O)(=O)Nc2ccc(F)cc2)ccc1Cl)C(=O)Nc1ccc2c(c1)OCCO2 (stereo unspecified),7.5
CC(C)C(=O)OCC(=O)NCc1ccccc1Cl,1.6
Nc1nc(NCCN2CCOCC2)nc(NCc2ccccc2)c1[N+](=O)[O-],20.5
CCOC(=O)c1nnn(-c2nonc2N)c1CSc1nnc(N)s1,19.8
O=C(NCc1ccccc1)c1c[nH]c2cc3c(cc2c1=O)OCCO3,2.2
N#CCCn1cc(C(=O)NCc2ccccc2)c(-c2cccs2)n1,15.0
O=C(/C=C/c1ccc(Cl)cc1Cl)N(Cc1ccccc1)C1CCS(=O)(=O)C1 (stereo unspecified),10.3
COC(=O)CNC(=O)c1cccc(-c2ccc(OC)cc2)c1,2.6
CN(C)/C=N/N(C)c1ncccc1[N+](=O)[O-],18.5
Clc1ccc2nc(-c3ccccc3)nc(C(Cl)Cl)c2c1,14.1
Cc1cc(C)n(-c2ccc(C(=O)NCc3ccc(F)cc3)cc2)n1,7.2
Cc1cc(C)n(-c2n[nH]c(=O)c3ccccc23)n1,14.8
COc1ccc(C(=O)Nc2ccc(S(=O)(=O)NC(C)(C)C)cc2)cc1[N+](=O)[O-],14.2
Cn1cccc1/C=C(\C#N)C(N)=S,13.3
CCCc1nc2c([nH]1)c(=O)n(C)c(=O)n2C,21.6
O=C1NC(=O)/C(=C\c2ccc(N3CCOCC3)o2)N1,1.7
CCOC(=O)C1=C(CSc2nc3c(cc2C#N)CN(C)CC3)OC(N)=C(C#N)C1c1ccncc1 (stereo unspecified),6.1
COC(=O)CNC(c1ccccc1)c1cc(Br)ccc1NC(C)=O (stereo unspecified),19.8
O=C1Nc2ccc3sc4ccccc4c3c2C1=O,10.0
COC(=O)C1=C(Nc2ccc(C)cc2)C=C(C)C(C(=O)OC)C1c1ccc(OC)cc1 (stereo unspecified),14.3
N#Cc1cc2c([nH]c1=O)CCCC2,19.6
CCN1C(=O)C(O)(CC(=O)C(C)(C)C)c2cc(Br)ccc21 (stereo unspecified),8.1
COc1ccc(C(=O)NNC(=O)C(NC(=O)c2ccccc2NC(=O)c2ccco2)C(C)C)cc1 (stereo unspecified),8.3
Cc1ccc(NN=C2c3ccccc3-c3ccccc32)cc1,3.9
CCCCNC(=O)CN1C(=O)NC(CCc2ccccc2)C1=O (stereo unspecified),15.7
CCCC1(C(=O)OCC)NC(c2ccco2)C2C(=O)N(C)C(=O)C21 (stereo unspecified),18.1
Cc1cc(C(=O)N/N=C/c2cccn2C)n[nH]1,7.3
Cc1ccc(S(=O)(=O)CC(=O)N2CCOCC2)cc1,22.7
COC(=O)c1ccc(CNC(=O)CN(CCC(C)C)S(=O)(=O)c2ccc3c(c2)OCCO3)cc1,3.1
O=C(COC(=O)CCC(=O)c1ccc(F)cc1)Nc1cccc(S(=O)(=O)N2CCCC2)c1,16.5
Cc1cccc(-n2cc[nH]c2=S)c1C,23.8
CC(C)(C)NC(=O)NC(=O)COC(=O)c1cc[n+]([O-])cc1,12.6
Cc1ccc(-n2nc(C)c(=O)c(-c3ccccc3)c2NC(=O)c2cccs2)cc1,4.7
COc1cc2c(cc1OC)C(c1cccc(C)c1)CC(=O)N2 (stereo unspecified),20.9
O=C(NCCCN1CCOCC1)c1ccccc1NS(=O)(=O)c1ccc(F)cc1,12.9
CCN1CCN(C(=O)C(C)Nc2cc(Cl)c(OC)cc2OC)CC1 (stereo unspecified),8.7
O=C(O)c1cccnc1SC1CC(=O)N(c2cccc3ccccc23)C1=O (stereo unspecified),10.1
Fc1ccccc1NC(=S)N(CCCN1CCOCC1)Cc1cccnc1,6.9
O=C(CCCc1ccccc1)Nc1nnc(C(F)(F)F)s1,4.3
CCCOc1ccc(N2CC(C(=O)Nc3ccccc3C(=O)NC)CC2=O)cc1 (stereo unspecified),25.9
CSCCC1NC(=O)N(CC(=O)Nc2ccc(Br)cc2Br)C1=O (stereo unspecified),24.9
CC(C)OC(=O)c1cccc(NC(=O)CSc2nnc(N)s2)c1,18.3
CN(C)S(=O)(=O)c1ccc(N2C(=O)CC2(/C=C/c2ccccc2)C(=O)NC2CCCC2)cc1 (stereo unspecified),6.7
COc1ccccc1NC(=O)c1cc2ccccc2o1,20.9

# More structures follow:
SMILES,Biofilm kill mix
CC1=NN(C(=O)CCc2ccc3c(c2)OCO3)C(O)(C(F)(F)F)C1 (stereo unspecified),10.7
O=C(/C=C/c1cccc(F)c1)N1CCN(c2ccccn2)CC1,21.6
Cc1ccc(S(=O)(=O)Nc2ncc(C(F)(F)F)cc2Cl)cc1,18.6
COC(=O)C(C)(C)ONC(=O)Nc1ccccc1,11.6
O=C(/C=C/c1ccccc1)OCc1cnc(Cl)s1,13.2
N/C(=N\OC(=O)COc1cc(Cl)c(Cl)cc1Cl)c1ccccn1,6.8
O=C1CC(c2ccsc2)Sc2ccccc2N1 (stereo unspecified),5.4
CC(=O)c1ccc(C(=O)Nc2nnc(-c3ccc(Cl)cc3)o2)cc1,31.9
COc1cc(/C=C2/C(=O)N(c3ccc([N+](=O)[O-])cc3)N=C2N2CCOCC2)ccc1O,4.6
C/C(=N\NC(=O)c1ccc(NS(=O)(=O)c2cccs2)cc1)c1ccc2c(c1)OCO2,11.4
CC(=O)Nc1ccc(NC(=O)CSc2ccc([N+](=O)[O-])cn2)cc1,21.5
CC(C)NC(=S)N/N=C/c1ccc(C(C)(C)C)cc1,14.8
N#CC(C#N)=C1NC2(CCCCC2)Cc2ccccc21,20.2
CCOc1cc(C(=O)NCc2ccc(C)cc2)ccc1OCC(=O)N1CCOCC1,6.1
CCOC(=O)C1CCN(C(=O)c2cc3cc(Br)ccc3oc2=O)CC1,15.2

# Three entries from above in a different format:
molecule | Biofilm kill mix
O=C(/C=C/c1ccccc1)OCc1cnc(Cl)s1 | 13.2
N/C(=N\OC(=O)COc1cc(Cl)c(Cl)cc1Cl)c1ccccn1 | 6.8
O=C1CC(c2ccsc2)Sc2ccccc2N1 (stereo unspecified) | 5.4

# The list goes on.
SMILES,Biofilm kill mix
CC1=C(C(=O)OCc2ccccc2)C(/C=C/c2ccccc2)NC(=S)N1 (stereo unspecified),10.3
CC(C)(C)NC(=O)CN(Cc1cccs1)C(=O)CN1C(=O)C(=O)c2ccccc21,7.3
COc1ccc(/C=C(/C#N)C(=O)Nc2ccccc2C)cc1C(=O)O,11.2
Cc1ccccc1Nc1ncnc2c1cnn2Cc1ccccc1,2.7
Cc1cc(N)n(-c2ncnc3scc(-c4ccc(Cl)cc4)c23)n1,10.8
CC(=O)Nc1ccc(NC(=O)C2CCN(C(=O)c3cccs3)CC2)cc1,19.2
N/N=C(/Cc1nc2ccccc2[nH]1)c1ccc([N+](=O)[O-])cc1,14.6
Cc1cccc(CCN(CC(=O)NC2CCCCC2)C(=O)c2csnn2)c1,23.2
Cc1nn2c(nc(N3CCOCC3)c3ccccc32)c1C=C(C#N)C#N,16.3
CCn1c2ccccc2c2cc(NC(=O)c3ccccc3[N+](=O)[O-])ccc21,2.2
Cc1ccc2c(COC(=O)CC3Sc4ccccc4NC3=O)cc(=O)oc2c1C (stereo unspecified),10.1
O=C(CN1CCCC1)Nc1nnc(-c2cccs2)s1,1.5
COc1cc2c(cc1OC)C(C)=NCC2,22.7
O=C1CC2c3ccccc3C1C1C(=O)N(CCc3ccccc3)C(=O)C21 (stereo unspecified),13.2
COc1ccc(S(=O)(=O)N2CCN(C(=O)c3cc(C)oc3C)CC2)cc1,-8.1
CC(=O)Nc1ccc(S(=O)(=O)NCc2ccncc2)cc1,24.4
Cc1ccc(NC(=O)N2CCC(c3ccccc3)C2)cc1C (stereo unspecified),6.8
NNC(=O)CCn1c2ccccc2c2ccccc21,-6.3
C#CCNC(=O)C1=C[C@H](c2csc3ccccc23)C[C@H](OCc2ccc(CO)cc2)O1,15.3
C[C@H](NC(=O)c1ccccc1Cl)C(=O)OCC(=O)N1CC2(C)CC1CC(C)(C)C2 (stereo partly specified),13.7
COc1ccc(Cl)cc1-c1nc(SCC(=O)NC(C)(C)C)n[nH]1,19.6
CC(C)NC(=O)CN(c1cccc([N+](=O)[O-])c1)S(=O)(=O)c1ccccc1,-4.9
CCc1cc(-c2[nH]ncc2-c2ccc3c(c2)OCO3)c(O)cc1O,5.9
Cc1cc(S(=O)(=O)N(Cc2ccc(C(C)(C)C)cc2)Cc2cccs2)ccc1-n1cnnn1,7.5
O=C(CSc1nc(O)cc(=O)n1-c1ccccc1)Nc1ccc(Br)cn1,1.6
O=C(Cn1c(=O)oc2cc(S(=O)(=O)NCc3ccccc3)ccc21)N1CCCC1,26.4
COc1ccc(NC(=O)CSc2nnc(NC(=O)CN3CCOCC3)s2)cc1,16.2
CCCOC(=O)c1c(NC(=O)c2cnn3c2NC(c2ccccc2)CC3C(F)(F)F)sc2c1CCCC2 (stereo unspecified),15.2
Cc1ccc(S(=O)(=O)N2CCOCC2)cc1NC(=O)CNCc1cccnc1,12.0
O=C(NCc1ccccc1Cl)C1CCCO1 (stereo unspecified),5.6
C/C(=N/NC(=O)C1CCCCC1)c1ccc([N+](=O)[O-])cc1,5.3
COc1cc(/C=N/Nc2nc3ccccc3[nH]c2=O)ccc1O,8.8
CCn1c(=O)c(C(=O)NNS(=O)(=O)c2ccc(Cl)cc2)c(O)c2ccccc21,11.8
Nc1ccc2c(c1)nnn2-c1ccccc1,5.8
CCOC(=O)Cn1c2ccccc2n2nc(CCC(=O)O)c(=O)nc12,10.8
Cc1cccc(N2CCc3c2nc2ccc(Br)cc2c3N)c1,9.7
O=C(CC1C(=O)NCCN1C(=O)Nc1ccccc1)Nc1cc(Cl)ccc1Cl (stereo unspecified),22.7
Cc1cc(=O)[nH]c(N/N=C/c2cccs2)n1,25.8
O=C(CCC(NC(=O)OCc1ccccc1)C(=O)OCc1ccccc1)NCC(=O)OCc1ccccc1 (stereo unspecified),14.3
O=C(Nc1ccccc1OC(F)F)C1CCCN1C(=O)c1cccs1 (stereo unspecified),9.6
NC(=O)COC(=O)c1oc2ccccc2c1CSc1ccc(Cl)cc1,6.8
Nc1ccc2nc(Cc3ccccc3)[nH]c2c1,9.6
NCCCCCC(=O)Nc1ccncc1,15.8
S=C(Nc1ccc(Br)cc1)NC1CCCCC1,18.4
CCc1ccc(NC(=O)/C(C#N)=C/c2cc3ccc(C)cc3nc2N2CCOCC2)cc1,15.7

# The closing 6 entries of the section above lead into the next.
SMILES,Biofilm kill mix
O=C(Nc1ccccc1OC(F)F)C1CCCN1C(=O)c1cccs1 (stereo unspecified),9.6
NC(=O)COC(=O)c1oc2ccccc2c1CSc1ccc(Cl)cc1,6.8
Nc1ccc2nc(Cc3ccccc3)[nH]c2c1,9.6
NCCCCCC(=O)Nc1ccncc1,15.8
S=C(Nc1ccc(Br)cc1)NC1CCCCC1,18.4
CCc1ccc(NC(=O)/C(C#N)=C/c2cc3ccc(C)cc3nc2N2CCOCC2)cc1,15.7
COC(=O)c1ccc(C(=O)NCCCCO)cc1,14.6
Cc1ccsc1/C=N/NC(=O)CN1CCN(S(=O)(=O)c2ccc(Br)cc2)CC1,21.1
COc1cccc(NC(=S)NN=C2CCCCCC2)c1,13.1
COC/C=C/C1=CC2=CC(=O)C(C)(OC(=O)c3cnc4ccccc4n3)C(=O)C2=CN1CCN1CCOCC1 (stereo unspecified),4.7
CCSc1ncc(Cl)c(C(=O)Nc2cc(C)ccc2C)n1,13.0
COc1cccc(N2CCN(C(=O)CSc3ccc(F)cc3)CC2)c1,12.0
Cc1cc(C(=O)N2CCN(c3ccc([N+](=O)[O-])cc3)CC2)no1,14.5
CN1C(=O)CSc2ccc(NC(=O)N3CCN(c4ccccn4)CC3)cc21,14.1
Cc1cccc(-n2c(SCc3ccc([N+](=O)[O-])cc3)nnc2-c2c[nH]c3ccccc23)c1,16.5
Oc1cccc(Nc2nc(O)c(/C=C3\C=Nc4ccccc43)s2)c1,0.3
Cc1nn(-c2ccccc2)c(C)c1/C=C/C(=O)OCC(=O)NC1CCS(=O)(=O)C1 (stereo unspecified),2.2
Cc1ccc(C)c(NC(=S)NCCSc2ccc(Cl)cc2)c1,-2.5
O=C(CCS(=O)(=O)c1cccs1)Nc1ccc(C(=O)NC2CCCC2)cc1,-2.9

# Arranged by SMILES length (ascending): some entries from above.
SMILES,Biofilm kill mix
COC(=O)c1ccc(C(=O)NCCCCO)cc1,14.6
CCSc1ncc(Cl)c(C(=O)Nc2cc(C)ccc2C)n1,13.0
Cc1ccsc1/C=N/NC(=O)CN1CCN(S(=O)(=O)c2ccc(Br)cc2)CC1,21.1

# These rows are one share of the data (hit frequency here may not be typical).
